# RanGTP-Impb inh: inhibitors of RanGTP-importin-beta interaction, primary screen, biochemical, FRET, CFP-Ran, YFP-importin-beta, homogeneous. cell-free CFP-Ran/YFP-importin-beta FRET ratio. inhibition, % (no concentration beside the values). hit rate 1.1% among 300,000;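 active = most replicates above 15%; inconclusive = exactly half above 15%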;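 note: 0% = DMSO wells and 100% = Ran loaded with GDP instead of GTP; wells of about 40 µL received 100 nL stock; the first replicate is given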
# Vif A3G: HIV-1 Vif–A3G interaction blockers – biochemical, TR-FRET, GST-Vif 1-94, biotin-A3G peptide, dose response retest, primary screen (AID 1117319); TR-FRET GST-Vif / biotin-A3G peptide binding; higher % means a stronger effect; test concentration not given here; strong numbers were not always called active; one-dose inhibition, %; IC50 in µM for titrated hits; hit rate 0.57% among 260,000;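 active = above the screen mean plus three standard deviations and confirmed in dose response; inconclusive = results disagree or hit not tested in dose response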;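 note: Vif residues 1-94 fused to GST binding biotinylated APOBEC3G peptide 110-148; 0% = full assay without inhibitor and 100% = GST in place of GST-Vif; retest series ran down from 100 µM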
# Calb FLC: C. albicans growth modulation with fluconazole; growth inhibition, % (concentration not given with the values); C. albicans CaCi-2 (fluconazole-resistant clinical isolate) + fluconazole, Alamar Blue growth, 48 h; hit rate 0.57% among 300,000;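 active = most replicates above 75%; inconclusive = exactly half above 75%; inactive = most below 75%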;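 note: all wells also contain fluconazole at 8 µg/ml as a sub-toxic cotreatment; 0% = median of DMSO wells and 100% = median of geldanamycin control wells; wells of about 8 µL received 7.5 nL stock; the first replicate is given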
# Bfl-1 A1 inh: inhibitors of the anti-apoptotic protein A1, read as caspase activation; MEF A1-2A-BIM cells, Caspase-Glo 3/7 luminescence, 3 h; percent of clofoctol response, vehicle zero; caspase activation, % (no concentration beside the values); hit rate 0.066% among 330,000;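 active = over half of replicate activation scores above 10%, or exactly half above 10 with the replicate mean above 10; inconclusive = replicate mean below 10 yet half the replicates above 10; inactive = over half of replicates below 10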;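 note: wells of about 30 µL received 50 nL stock; many hits fall short of the cut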
# MLL AF4-AF9 inh: MLL-AF4/AF9 protein interaction inhibition | AlphaScreen, biotin-AF4 peptide binding to FLAG-AF9 | inhibition, % at 10 µM | hit rate 0.47% among 350,000;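 active = every replicate reaching a set inhibition limit, whatever the replicate mean, cut at about 25% in these data; inconclusive = mean inhibition reaches that limit but some replicates miss it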;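 note: 0% = plate neutral control median and 100% = total signal loss; the record names both 10 and 1 µM as test concentration; the first replicate is given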
# Target sequence (P42568 whole entry, looked up): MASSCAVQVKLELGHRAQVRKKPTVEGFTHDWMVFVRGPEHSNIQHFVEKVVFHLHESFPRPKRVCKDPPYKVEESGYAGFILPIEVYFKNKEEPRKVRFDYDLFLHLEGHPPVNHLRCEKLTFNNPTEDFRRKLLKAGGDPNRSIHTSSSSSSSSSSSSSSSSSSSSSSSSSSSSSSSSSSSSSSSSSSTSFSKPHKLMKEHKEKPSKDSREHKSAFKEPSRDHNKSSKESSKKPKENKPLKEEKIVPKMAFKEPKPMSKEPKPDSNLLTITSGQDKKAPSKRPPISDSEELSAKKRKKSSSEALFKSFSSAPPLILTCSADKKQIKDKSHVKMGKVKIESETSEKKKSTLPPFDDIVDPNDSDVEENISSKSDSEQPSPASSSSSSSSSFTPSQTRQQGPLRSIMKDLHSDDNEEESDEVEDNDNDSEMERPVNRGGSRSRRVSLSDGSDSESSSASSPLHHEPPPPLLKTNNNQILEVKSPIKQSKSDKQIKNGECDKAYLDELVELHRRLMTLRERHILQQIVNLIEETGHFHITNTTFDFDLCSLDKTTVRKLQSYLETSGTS
# Beta apoptosis: beta cell apoptosis inhibition | AID 435005 | INS-1E cytokine-induced death, ATP luminescence, 48 h; percent of positive-control rescue, neutral wells zero | hit rate 0.8% among 300,000 | protection from apoptosis, % (concentration not given with the values);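 active = all replicates at 75% or more, or half of them and the mean; inconclusive = half reach 75% but not the mean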;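 note: 0% = cytokine-treated negative control wells and 100% = positive control rescue; higher means more ATP so stronger rescue from cytokine killing; wells of about 40 µL received 100 nL stock; the first replicate is given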
# Ecoli rRNA inh: inhibits bacterial ribosomal RNA function over humanized ribosomes | hit rate 1.6% among 350,000 | GFP signal change (wild-type ribosome), % (test concentration not listed) | E. coli WT GFP vs humanized-ribosome RFP mutants, fluorescence, 24 h; active compounds read low; DMSO median 0, no signal -100;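 active = significant combined selectivity score with lowered wild-type GFP, culture density cut under 30%, mutant RFP and density less affected; inactive = any of these conditions unmet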; note: one replicate is shown; some compounds called inactive have numbers as strong as hits
# T cruzi repl: T. cruzi replication inhibition. T. cruzi beta-gal in NIH3T3, luminescence, 90 h. inhibition, % (test concentration not listed). hit rate 1.4% among 300,000;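 active = mean inhibition across valid replicates above about 55%, limit read from the data; inconclusive = mean below that limit but half or more replicates reach it; inactive = mean below it, under half of replicates reach it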;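 note: signal also drops with host cell toxicity which is not excluded here; 0% = plate median of DMSO wells and 100% = zero luminescence signal; higher percent means less beta-gal luminescence so fewer parasites; stock transfer was 50 nL into about 50 µL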
# Ecoli rRNA inh OD600: further read-out of Ecoli rRNA inh, marked with its call; OD600 change, %; measured here: OD600 growth;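 optical density of the mix in the first replicate; 0 = DMSO median and -100 = no signal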
# Ecoli rRNA inh RFP: further read-out of Ecoli rRNA inh, marked with its call; RFP signal change, %; measured here: RFP humanized mutant strains;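 first replicate; 0 = DMSO median and -100 = no signal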
# * hit, by the source's call; u = inconclusive; x = no result given. A portion of the library; rates above refer to the full screens.
SMILES,RanGTP-Impb inh,Vif A3G,Calb FLC,Bfl-1 A1 inh,MLL AF4-AF9 inh,Beta apoptosis,Ecoli rRNA inh,Ecoli rRNA inh OD600,Ecoli rRNA inh RFP,T cruzi repl
O=C(NCCCN1CCOCC1)c1ccc(N2CCOCC2)c([N+](=O)[O-])c1,-0.6,x,3.6,2.5,1.4,1.2,27.9,7.6,7.7,8.6
CC(=O)c1ccc(NC(=O)c2cc(C)nc3ccccc23)cc1,-0.8,-10.0%,-9.0,0.5,-0.9,1.9,3.9,12.7,5.5,-18.1
COc1cc2ncnc(NCc3ccc(C)cc3)c2cc1OC,5.0,-2.9%,-6.7,0.6,x,-3.1,x,x,x,19.1
Cc1ccc(S(=O)(=O)N2[C@@H](c3ccccc3)C(C(=O)O)=CC[C@H]2c2cccs2)cc1,x,x,x,0.4,-2.4,-8.3,-35.8,-44.1,-13.9,x
C#CCOCCOCCOCCNc1nc(N2CCN(C(=O)[C@H](Cc3ccc(O)cc3)n3cc([C@@H](N)C(C)CC)nn3)CC2)nc(N2CCN(C(=O)[C@H](CCCCN)n3cc([C@@H](N)CO)nn3)CC2)n1 (stereo partly specified),1.2,-12.6%,-6.2,0.3,x,-3.5,x,x,x,-17.5
COc1cccc(NC(=O)c2ccc(S(=O)(=O)N(C)C)cc2)c1,7.4,5.1%,-10.3,-0.5,-0.6,-6.3,-17.1,-7.4,-4.4,-34.2
Cc1ccc(C(C(=O)NC2CCCCC2)N(C(=O)c2csnn2)C2CC2)cc1 (stereo unspecified),-3.3,-13.2%,-5.6,-0.3,1.4,-7.4,-6.8,-5.5,-5.5,2.4
COc1ccccc1-c1nnc(SCC(=O)NC2CCCCC2)n1C,-1.3,x,0.8,0.2,-5.8,6.3,-1.3,2.6,-2.2,-2.5
CCCn1c(/C=C/c2ccco2)nc2ccccc21,-2.0,x,11.8,-1.5,9.8,-8.5,x,x,x,0.9
O=C(Nc1nccs1)c1ccc(NC(=O)C2CC=CCC2C(=O)O)cc1 (stereo unspecified),u,13.7%,-0.3,-0.2,-1.5,5.3,4.4,8.0,-0.9,-11.3
C=C(C)CSc1nncn1/N=C/c1ccc(OC)cc1,1.6,16.8%,-3.3,1.0,x,-5.1,x,x,x,5.2
CS/C(=C\[N+](=O)[O-])Nc1ccccc1,5.2,7.2%,12.0,-1.2,x,-0.7,x,x,x,-2.7
Cc1cc(C)nc(SCC(=O)Nc2ccc(N3CCOCC3)cc2)n1,-2.7,11.9%,11.2,0.2,x,2.1,x,x,x,-14.3
CCCC(=O)NCCc1nc2ccccc2n1C,0.6,2.2%,-2.0,-0.7,x,-1.5,x,x,x,-10.2
COc1ccccc1NS(=O)(=O)c1ccc(NC(=O)Cc2cccs2)cc1,3.3,-1.8%,1.2,-0.6,-0.5,3.7,-20.4,-17.1,16.0,-28.5
O=C(NCCNc1ccc([N+](=O)[O-])cc1)c1ccc(Cl)cc1,8.3,-1.3%,5.7,0.5,-10.9,4.3,-3.6,-1.5,1.6,13.5
CCc1ccc(-c2cc(C(F)(F)F)n3nc(C(=O)Nc4c(C)nn(Cc5ccccc5C)c4C)cc3n2)s1,35.0*,-5.7%,9.4,-0.4,x,23.7,x,x,x,59.5*
Cc1cc(C)nc(SCc2ccc(C(=O)N/N=C/c3ccccn3)cc2)n1,0.2,x,-20.7,-0.5,0.9,7.7,-17.7,-24.4,1.8,-0.3
S=C(Nc1ccccn1)NC1CCCCC1,2.8,23.6%,3.1,0.6,x,8.9,-22.9*,-16.7*,0.5*,-11.9
O=C(CSc1nnc(CNC(=O)c2c(F)cccc2F)o1)NCC1CCCO1 (stereo unspecified),-3.5,x,6.8,-0.4,-1.2,0.9,8.2,6.6,2.4,0.4
CC(CCN1CCOCC1)c1ccccc1 (stereo unspecified),0.1,x,-1.9,-0.5,-0.9,-0.6,17.7,12.9,0.3,-9.3
Cc1nc2ccc(S(=O)(=O)NC(C(=O)N3CCCCCC3)C(C)C)cc2s1 (stereo unspecified),0.1,7.0%,8.2,-0.5,-2.8,x,-2.5,-8.4,-1.1,3.4
CC1(C)CN(O)CCN1O,-2.0,x,-6.2,0.8,-6.8,x,18.1,7.1,-6.0,-5.9
CCCC(=O)NC(=S)Nc1ccccc1C(=O)OC,-0.3,-2.2%,-27.8,0.1,x,-1.0,x,x,x,9.1
S=C(NCc1ccccc1)NCc1ccccc1Cl,x,x,-4.4,1.9,0.2,3.6,-23.3,-24.1,-7.5,x

# (list continues)
SMILES,RanGTP-Impb inh,Vif A3G,Calb FLC,Bfl-1 A1 inh,MLL AF4-AF9 inh,Beta apoptosis,Ecoli rRNA inh,Ecoli rRNA inh OD600,Ecoli rRNA inh RFP,T cruzi repl
CC(C)(CO)CNC(=O)CCc1nnc(-c2ccc(-c3ccccc3)cc2)o1,2.5,x,21.0,0.2,-3.0,x,-7.7,-7.3,-4.1,-20.2
CC(NC(=O)C(=O)NCCN1CCN(C(=O)c2ccccc2Br)CC1)c1ccccc1 (stereo unspecified),-9.1,x,4.6,0.0,1.7,1.6,13.4,9.4,-0.4,2.6
O=c1c2cnn(-c3ccccc3)c2ncn1Cc1cccc(Cl)c1,x,-0.5%,x,-0.8,-2.0,-3.6,-0.1,5.3,0.8,x
CNC(=O)C(=O)NCC1OCCN1S(=O)(=O)c1ccc2c(c1)OCCO2 (stereo unspecified),-0.1,3.7%,0.4,0.6,-3.2,2.0,12.3,5.8,5.0,-12.0
CCC1=C(OC(=O)N(CC)CC)N2C(=O)OC(=NCCOC)[C@]2(Cc2ccccc2)[C@H]2C1=CC[C@H]1C(=O)NC(=O)[C@H]12,-0.9,4.0%,17.3,1.6,x,1.3,4.3,2.1,1.9,23.2
C/C=C/C(=O)N1CC2(CC(c3cccc(NC(=O)CC(c4ccccc4)c4ccccc4)c3)=NO2)C[C@H]1C(N)=O (stereo partly specified),-3.6,-1.9%,14.7,-0.4,-2.9,-0.5,3.7,-4.1,8.9,23.0
COc1ccccc1N1CC(C(=O)NC2CCCCCC2)CC1=O (stereo unspecified),x,-4.8%,x,0.4,7.7,-5.1,-2.3,-0.1,-0.6,x
CN(Cc1ccc(Cl)cc1)C(=O)COC(=O)c1ccc(-c2ccc(O)cc2)cc1,x,3.8%,x,0.1,0.8,-4.4,-1.7,9.1,1.9,x
O=C(O)C1CC1(c1ccccc1)c1ccccc1 (stereo unspecified),0.6,-6.5%,-1.5,1.3,-2.3,x,6.4,6.8,-1.1,-4.2
O=C(NCc1cccc2ccsc12)c1cccs1,x,x,x,u,-4.7,-0.6,-10.3,-25.9,-11.7,x
COCc1cc(=O)n2[nH]c(SC)nc2n1,-0.2,-3.0%,-3.9,0.0,x,-3.2,x,x,x,-5.7
CC(=O)c1ccc(NC(=O)COC(=O)c2ccccc2Nc2ccccc2)cc1,6.5,x,-6.0,0.9,x,0.8,x,x,x,-5.6
O=C(c1ccco1)c1cn(CC(=O)N2CCCC2)c2ccccc12,4.3,-5.9%,-16.0,-0.1,-2.1,-1.5,13.2,15.1,1.2,13.3
COC(=O)CNC(=O)CSc1nc2sccc2c(=O)n1-c1ccccc1,4.3,0.6%,-10.2,-0.2,0.2,-10.6,1.3,-7.2,-0.3,0.9
CCOC(=O)N1CCN(Cc2nc3cc(NC(=O)c4ccco4)ccc3n2CC)CC1,3.9,-3.0%,-8.3,0.5,-0.3,2.8,-0.9,-1.7,2.5,8.6
CCOC(=O)c1c(/N=C/N(C)C)sc(C(=O)OC)c1C,4.6,1.1%,29.6,0.2,-2.7,2.6,-7.2,-4.7,-1.6,-3.9
CC(=O)Nc1ccc(S(=O)(=O)N2CCC(NC(=O)C(Cc3ccc(C)cc3)NC(C)=O)CC2)cc1 (stereo unspecified),2.5,-4.1%,-0.4,x,1.8,x,x,x,x,-6.8
Cc1ccc(C(=O)N2CCN(S(=O)(=O)c3cc(Br)ccc3Br)CC2)o1,6.0,x,0.3,0.2,0.1,-7.3,-3.3,-11.9,1.4,9.9
CCOC(=O)c1c(CN2CCN(c3ccccc3)CC2)oc2cc(Br)c(O)cc12,-2.4,x,12.1,-0.1,11.3,-1.9,-0.4,-2.2,-5.8,10.2
O=C(OC1CCN(c2ncc(C(F)(F)F)cc2Cl)CC1)c1ccccc1,9.0,1.3%,19.3,-0.1,x,-3.8,x,x,x,-2.8
O=C(CCCc1nc(-c2ccccc2Cl)no1)NC1CCCC1,5.2,x,-6.1,x,-3.4,x,5.1,4.5,2.6,0.6
Cc1c(C(=O)/C=C/c2cccs2)oc2ccc(F)cc12,0.4,-3.4%,-7.0,1.1,x,7.3,x,x,x,4.6
Cc1ccc(-c2noc(CSc3nnc(Cc4ccccc4)n3-c3ccc(Cl)cc3)n2)cc1,0.6,-3.1%,21.0,-0.8,-1.6,0.1,2.4,-2.3,20.7,27.6
CCc1cc2c(cc3c(=O)n(CC(=O)NCCCN(CC)CC)nc(CC)n32)s1,-0.2,10.6%,16.3,0.1,x,-3.4,x,x,x,-0.3
N#C/C(=C\c1ccc(-c2ccccc2[N+](=O)[O-])o1)C(N)=O,-6.5,x,0.7,-0.1,-33.0,-1.8,10.4,1.0,2.3,-12.2

# Carrying on:
SMILES,RanGTP-Impb inh,Vif A3G,Calb FLC,Bfl-1 A1 inh,MLL AF4-AF9 inh,Beta apoptosis,Ecoli rRNA inh,Ecoli rRNA inh OD600,Ecoli rRNA inh RFP,T cruzi repl
CCN(CC)CCCNC(=O)Cn1cnc2ccc(S(=O)(=O)N3CCC(C)CC3)cc2c1=O,3.9,12.0%,-5.0,0.8,2.7,-6.6,16.5,6.5,4.1,-3.9
COc1ccc(NC(=O)COC(=O)C2CC2)c(OC)c1,x,-9.6%,x,0.7,-1.1,2.4,x,x,x,x
CC(C)Cc1cc(C(=O)Nc2cc(Cl)ccc2Cl)no1,-7.7,4.6%,-8.0,0.3,6.1,-1.0,1.5,9.8,-4.7,-2.8
Cc1c(CC(=O)N2CCN(C(=O)C3COc4ccccc4O3)CC2)c(=O)oc2c(C)c(O)ccc12 (stereo unspecified),24.0*,x,x,-0.3,-2.1,2.1,1.6,0.3,-0.7,0.5
CCC1CCCCN1CCCNC(=O)C1CCCN(c2nn3c(=O)cc(C)nc3s2)C1 (stereo unspecified),4.5,x,-11.8,-0.2,1.4,-11.1,1.2,-8.1,0.1,-14.1
Cc1n[nH]c(=S)n1/N=C/c1ccc(-c2ccccc2[N+](=O)[O-])o1,-5.3,-4.5%,5.6,0.6,x,0.1,x,x,x,x
O=C(Cc1ccc(F)cc1)Nc1cccc2cccnc12,-2.0,-2.7%,-19.2,-0.6,x,-0.7,x,x,x,-3.0
Cc1nnc(SCC(=O)N2CCN(C(=O)c3ccco3)CC2)n1-c1ccccc1,-1.7,-2.7%,4.5,0.0,-1.8,x,17.9,10.5,0.8,-10.8

# High-throughput results (PubChem BioAssay)
